# hNpr1 antagonist = Natriuretic polypeptide receptor (hNpr1) antagonism - Primary qHTS; Atrial natriuretic peptide receptor 1 (Homo sapiens), P16066; HEK293 hNpr1 GloSensor cGMP, ANP-stimulated luminescence; Potency, µM (doses to about 46.3 µM), for inactives: at the top dose activity change, negative = inhibition, hits mostly inhibitors; 76,000 tested, 1.6% active; AID 1347048, 2019; active = well fitted inhibition curve with a large enough effect; inconclusive = small, poorly fitted or top-dose-only effect; inactive = no such curve, though single readings can be large or run the other way;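 further: nearly all actives have a fitted effect of over 60% in size; nearly all hits also lower the signal before the agonist is added; a reference antagonist and vehicle were the controls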
# Target sequence (P16066 whole entry, looked up): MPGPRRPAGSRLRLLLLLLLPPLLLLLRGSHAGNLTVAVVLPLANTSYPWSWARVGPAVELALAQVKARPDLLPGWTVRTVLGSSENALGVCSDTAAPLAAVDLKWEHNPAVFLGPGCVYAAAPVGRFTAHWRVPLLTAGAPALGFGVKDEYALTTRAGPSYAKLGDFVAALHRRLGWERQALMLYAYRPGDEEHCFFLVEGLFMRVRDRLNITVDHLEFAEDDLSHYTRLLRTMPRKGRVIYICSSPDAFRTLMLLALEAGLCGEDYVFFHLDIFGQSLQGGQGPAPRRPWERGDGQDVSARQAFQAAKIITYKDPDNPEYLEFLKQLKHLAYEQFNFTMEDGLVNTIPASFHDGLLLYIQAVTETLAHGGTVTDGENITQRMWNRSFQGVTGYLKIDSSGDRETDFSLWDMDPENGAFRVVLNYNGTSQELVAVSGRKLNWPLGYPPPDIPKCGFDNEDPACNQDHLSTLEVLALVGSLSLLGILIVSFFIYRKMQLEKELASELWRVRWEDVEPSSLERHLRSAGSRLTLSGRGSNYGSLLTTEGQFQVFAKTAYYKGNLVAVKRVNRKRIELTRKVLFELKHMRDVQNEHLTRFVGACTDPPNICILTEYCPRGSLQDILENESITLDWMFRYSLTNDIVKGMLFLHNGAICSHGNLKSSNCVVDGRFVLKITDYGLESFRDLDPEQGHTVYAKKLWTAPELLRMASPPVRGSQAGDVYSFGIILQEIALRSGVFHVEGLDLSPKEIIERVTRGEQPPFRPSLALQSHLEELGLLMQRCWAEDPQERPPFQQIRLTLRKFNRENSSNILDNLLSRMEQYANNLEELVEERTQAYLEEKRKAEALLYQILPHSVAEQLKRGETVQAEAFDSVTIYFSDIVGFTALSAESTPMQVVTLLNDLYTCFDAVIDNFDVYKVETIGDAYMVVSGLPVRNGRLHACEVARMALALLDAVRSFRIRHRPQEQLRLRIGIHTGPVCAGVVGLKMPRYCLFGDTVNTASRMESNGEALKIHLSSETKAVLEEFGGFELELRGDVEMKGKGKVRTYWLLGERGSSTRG
#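 Compound pre-incubated 30 min at room temperature on GloSensor-loaded HEK293 cells stably carrying hNpr1 and the pGS-40F cGMP biosensor. Stimulation uses hNppA at 0.1 nM final; luminescence is taken at baseline and 20 min post-agonist.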
# Numbers without * were called inactive; ? = inconclusive; [ ] = another dose, or the depositor's remark. On the % scale 0 is the no-effect control and ±100 the full control effect; potency means the concentration at half of the fitted maximal effect. Only part of the results is shown, so the mix of outcomes need not match the whole.
SMILES,hNpr1 antagonist
COCCN1CC(Cc2ccccc2C(=O)NC(C)C)CC1=O (stereo unspecified),-2.6%
CN(C)C[C@@H]1CN(c2ncccn2)C[C@H]1NC(=O)Cc1ccccc1Cl,5.1%
COCCn1c(C)cc(C(=O)N2CCCCCCNC(=O)CC2)c1C,11.7%
COc1ccccc1CC(=O)N1CCC(n2cc(-c3nc(C)no3)nn2)CC1,14.5%
CN(C)C(=O)N1CCC(c2nc(C3CCOC3)n[nH]2)CC1 (stereo unspecified),-0.2%
CN(c1ccccc1)c1ccc2c(n1)CN(Cc1ccccc1)C(=O)CO2,?
CS(=O)(=O)Nc1ccc(C2(C(=O)NCc3ccc(F)cc3Cl)CCCCC2)cc1,0.2%
CN1[C@@H](CCC(=O)N2CCc3ccccc32)CNC(=O)[C@@H]2[C@H]1CCN2Cc1ccccc1,?
c1cncc(CNC[C@H]2COCc3nc4ccccc4n32)c1,-12.1%[70.6 µM]
CN1CCCN(C(=O)COc2ccc(Cl)cc2)c2ccccc21,-21.0%
O=C(NCc1ccc(F)cc1)c1ccc2nccn2c1,-20.3%[70.6 µM]
Clc1cccc(CN2CC[C@H](c3nc4ncccc4[nH]3)C2)c1,-26.3%[70.6 µM]

# Single entries from the results shown:
# Clc1cccc(CN2CC[C@H](c3nc4ncccc4[nH]3)C2)c1 @ hNpr1 antagonist: -26.3%[70.6 µM]
# COc1ccccc1CC(=O)N1CCC(n2cc(-c3nc(C)no3)nn2)CC1 @ hNpr1 antagonist: 14.5%
# c1cncc(CNC[C@H]2COCc3nc4ccccc4n32)c1 @ hNpr1 antagonist: -12.1%[70.6 µM]

# Continuation:
SMILES,hNpr1 antagonist
N#Cc1ccc(S(=O)(=O)N2CCOCCNC(=O)[C@H]3CCCC[C@H]32)cc1,-3.9%
CC1CCN(CC2CCCN(C(=O)c3cnccn3)CC2)CC1 (stereo unspecified),-3.1%
COc1cc(CNC(=O)c2ccc3c(c2)N(C)C2CCCN2C3=O)cc(OC)c1 (stereo unspecified),0.0%
Cc1cc(C(=O)N[C@@H]2CN(Cc3ccccc3)C[C@H]2CO)c(C)o1,-3.8%
Cc1ccc(-c2cnc([C@@H]3COCCN3C3CCC3)[nH]2)cc1,4.6%[70.6 µM]
COc1ccc(C(=O)N2CCC3(CC2)NC(=O)N(Cc2ccccc2)C3=O)cc1,0.0%
COc1cccc(CC(=O)N[C@@H]2CCC[C@@H](C(=O)NC3CC3)CC(=O)N(C)C2)c1,4.4%[70.6 µM]
COc1ccc(CN2C[C@@H](CO)[C@H](C3CCN(C(C)=O)CC3)C2)cc1OC,6.2%
COc1ccc(C2Cn3nnc(-c4noc(COc5ccccc5)n4)c3CO2)cc1 (stereo unspecified),-5.9%
CN(CCc1ccccn1)[C@H]1[C@@H]2OC[C@@H](O2)[C@@H](NCc2ccncc2)[C@@H]1O,2.0%[70.6 µM]
O=C(Cc1ccccc1F)NCCc1noc(C2CC2)n1,-4.9%
COc1ccc(CN2Cc3[nH]cnc3C[C@H]2c2nc(-c3ccc(C(F)(F)F)cc3)no2)cc1,-23.8%
Cc1cccc(CC(=O)N2CCC[C@H]2c2nc(-c3ccccc3)no2)c1,-4.8%
CCOc1cc(=O)n2c(c1C(=O)Nc1ccc(C)cc1C)CCCC2,1.0%
CC(C(=O)N1CCCN(c2cc(-c3ccccc3)[nH]n2)CC1)c1ccccc1 (stereo unspecified),-18.8%
O=C(Nc1ccccc1)O[C@@H]1CO[C@H]2[C@@H]1OC[C@@H]2NC(=O)C1CCCCC1,-10.9%[70.6 µM]
O=C(O)c1cnc(-c2cc(NCc3ccccn3)nc3[nH]ccc23)c(Cl)c1,-1.4%
COc1ccc(CNC(=O)c2cn3ccnc(-c4ccccc4)c3n2)cc1OC,-5.7%
CN1CCC(N2C[C@@H]3C[C@H]2C(=O)N(CC2CC2)c2ccccc2O3)CC1,1.7%[70.6 µM]
CCn1nc(C)c(CNC(=O)[C@@H]2C[C@@H](O)CN2C2CCN(C(=O)c3cccc(OC)c3)CC2)c1C,-1.8%
O=C(c1ccoc1)N1CC(Oc2ccc(-c3nc(-c4ccccc4)no3)cc2)C1,-2.3%
COCCN1Cc2ccc(Nc3ccc(OC)cc3)nc2C(C)(C(=O)Nc2ccccc2)C1 (stereo unspecified),3.9%
CN1CCC(NC(=O)c2n[nH]c3c2CN(C(=O)c2ccccc2)CC3)CC1,4.6%
CC(=O)N(C1CC1)C1CCOC2(CCN(C(=O)Nc3ccccc3)CC2)C1 (stereo unspecified),-16.6%
O=C(c1cccs1)N1CCCCCC1c1nc(C2CC2)no1 (stereo unspecified),-10.9%
Cc1ccc(C(=O)N2CCC(Oc3ccc(C(=O)N4CCOCC4)cn3)CC2)cc1,0.2%
N#Cc1cccc(CN2CCOC[C@H]2c2ncc(-c3ccc(C(F)(F)F)cc3)[nH]2)c1,?
O=C1NC2(CCN(C(=O)c3cccnc3)C2)N=C1c1cccnc1 (stereo unspecified),0.0%[70.6 µM]
CC(Cn1cncn1)NCc1cc(=O)c2cc(F)ccc2[nH]1 (stereo unspecified),0.9%
COc1cc(=O)n2c(c1C(=O)Nc1cc(C)ccc1C)CCCC2,3.3%
CC(C)CCN1CCC(N2CCN(S(=O)(=O)c3ccc(CC(C)C)cc3)CC2)C1=O (stereo unspecified),?
C[C@@]1(O)CCN(Cc2cccc(F)c2F)C[C@H]1N1CCCC1,-2.8%
Cc1cnn(C(C)c2nc(-c3ccc(C)nn3)no2)c1 (stereo unspecified),1.1%
Cc1nnnn1CCCN1CCC2(CC1)CNC(C(=O)O)C2 (stereo unspecified),-0.3%
CN1CC(=O)N(c2ccccc2)Cc2c(NCCOc3ccccc3)ncnc21,2.2%
COc1ccc(CN2CCCC(CNC(=O)NC(C)C)C2)cc1O (stereo unspecified),-2.5%
COC[C@@H]1CN(c2cnccn2)C[C@H]1C(=O)NCc1ccco1,1.2%
COC[C@@H]1CN(S(=O)(=O)c2cccc(C)c2)C[C@H]1c1nc(C)no1,-0.4%
COc1ccc(NC(=O)[C@@H]2C[C@H](c3ccc(F)cc3)N(Cc3ccccc3Cl)C2)cn1,-29.7%[70.6 µM]
O=C(c1ccc(F)cc1)N1CCN(C2CCN(Cc3cccnc3)C2=O)CC1 (stereo unspecified),-0.1%
O=C(O)C[C@@H]1CCN(C(=O)C2CCCCC2)C[C@@H]1CCN1CCN(c2ccccc2)CC1,10.0%
COc1ccc(C(=O)NCc2nnc3cc(-c4nc(C)no4)ccn23)cc1F,10.7%
O=C(Cc1ccccc1Cl)N1CCC(Cc2nc(-c3ccc(F)cc3)no2)CC1,15.8µM*
O=C(CCC1CCN(c2cc(NC3CC3)ncn2)CC1)Nc1ccccc1,?
Cc1ccc(C2Cn3cnc(C(=O)N4CCC(C(=O)NCc5ccco5)CC4)c3CO2)cc1 (stereo unspecified),-2.8%
Cc1ccc(OCC(=O)N2CC(c3nnc(-c4ccc(C)cc4)o3)C3(CCOCC3)C2)cc1 (stereo unspecified),1.0%
CC1=C[C@@H](CN2CCN(c3ccc(F)cc3)CC2)[C@H](C(C)C)C[C@H]1Cc1nnc(-c2cncn2C)o1,-2.0%
O=C1CC[C@@H](C(=O)N2CCc3onc(C(c4ccccc4)c4ccccc4)c3C2)N1,1.6%
Cc1cc(CN(C)C(=O)c2cc(COc3ccc4c(c3)OCO4)[nH]n2)on1,0.7%
COc1ccc(Br)c(C(=O)N[C@@H]2C=C(C(=O)N[C@H](C)C(N)=O)C[C@@H](O)[C@@H]2O)c1,1.0%
COCCNc1ncccc1-c1noc([C@@H]2CCCN2Cc2ccc(C(=O)O)cc2)n1,3.7%[70.6 µM]
CCOC(=O)C1(Cc2ccc(OC)cc2)CCN(C(=O)C(C)Oc2ccccc2)CC1 (stereo unspecified),-1.3%
COc1ccc(Cl)cc1C(=O)Nc1ccc2c(c1)CCC(=O)N2,0.0%
O=C1CC(c2ccccc2)N(C(=O)C2CC2)CCCN(C(=O)c2cccs2)CCN1 (stereo unspecified),4.2%
CC(C)(C(=O)NCCc1ccccc1)C1CCOCC1,-1.1%
CCC(C)Oc1ccccc1CNc1ncnc2c1c(C)nn2C (stereo unspecified),-5.7%
Cc1cccc(C(=O)N[C@H]2CN(CCS(C)(=O)=O)C[C@@H]2C(C)C)c1,-0.5%
O=C1[C@H]2CN(Cc3cc(Cl)ccc3F)C[C@H]2C(=O)N1CCc1ccccc1,-1.9%
CC1=C[C@@H](CNS(=O)(=O)Cc2ccccc2)[C@H](C(C)C)C[C@H]1CC(=O)N1CCOCC1,6.5%
Cc1cc(C(=O)N[C@@H]2CN(c3ccncn3)C[C@H]2CN(C)C)n[nH]1,4.9%

# Other records
SMILES,hNpr1 antagonist
O=C(NC1CCCN(c2cc(-c3ccccc3)[nH]n2)C1)c1ccccc1Br (stereo unspecified),-16.8%
COCCN1CCOc2nc(-c3cccc(C)c3)ncc2C1=O,?
CC1=C[C@@H](CNC(=O)c2ccc(C#N)cc2)[C@H](C(C)C)C[C@H]1Cc1nnc(-c2ccncc2)o1,?
O=C1CCCN1CCCN1C(=O)[C@H]2CN(Cc3cccc(Cl)c3)C[C@H]2C1=O,-11.0%
O=C(Nc1ccc(F)cc1F)N1CCOc2ccc(CN3CCc4ccccc4C3)cc2C1,0.2%
Cc1ccc(C2=NC3(CCN(C(=O)c4cccc(Cl)c4)CC3)ON2)cc1,-7.0%
CN1c2cc(C(=O)Nc3ccc(C#N)cc3)ccc2C(=O)N2CCCCC21 (stereo unspecified),-4.6%
CN(C)C[C@@H]1CN(c2ccncn2)C[C@H]1NC(=O)Cn1c(=O)oc2ccccc21,8.5%
Cc1ccc(NC(=O)C2CN(S(=O)(=O)C3CC3)CC23CCCCC3)c(C)c1 (stereo unspecified),-10.7%
Cc1cc(C)c(CN2CCC(n3cc(C(C)(C)N)nn3)CC2)c(C)c1,7.2%
Cc1noc(-c2ccc3c(c2)OCO3)c1C(=O)NCc1ccccc1,-12.0%
CC(=O)N1CCC([C@@H]2CN(C(=O)c3ccc(Br)o3)C[C@H]2CO)CC1,3.9%
CC(=O)N1CCC(N2CCC3(CC2)CN(C2CCC2)CC3CO)CC1 (stereo unspecified),-1.1%
CC(c1ccccc1)N1Cc2cc(NC(=O)c3ccccc3)ccc2OCC1=O (stereo unspecified),-12.4%
CCC(=O)N1CCCC(n2c(C)cnc2-c2ccncc2)C1 (stereo unspecified),2.0%
COc1cccc(Nc2ccc3c(n2)C(C)(C(=O)NC2CCC2)CN(C)C3)c1 (stereo unspecified),-2.8%[70.6 µM]
O=C(NCc1ccccc1)C1CCCN(C2CCN(C(=O)C3CCC3)CC2)C1 (stereo unspecified),15.7%
O=C1[C@H]2CN(Cc3ccccc3F)C[C@H]2C(=O)N1CCN1CCc2ccccc2C1,-13.6%
O=C1NCCCCCCN(C(=O)Nc2ccccc2)[C@H]2C[C@H](C(=O)N3CCc4ccccc4C3)C[C@@H]12,2.6%
COCCn1c(C)nnc1-c1cc(Nc2ccccc2)ccn1,3.5%[70.6 µM]
COc1cccc(-c2cnc([C@@H]3COCCN3Cc3ccc(NC(C)=O)cc3)[nH]2)c1,2.0%[70.6 µM]
COC(=O)c1ccc2nc(C[C@@H]3C[C@@H](C(C)C)[C@H](CNC(=O)c4cccnc4)C=C3C)[nH]c2c1,-4.8%
O=C(NCCc1ccccc1)NC1CCN(C(=O)N2CC3CC(C2)[C@H]2CCCC(=O)N2C3)CC1 (stereo partly specified),-1.1%
O=C1CCCN1CCCN1C(=O)[C@@H]2C[C@@H](O)CN2C2(CN(Cc3ccccc3Cl)C2)C1=O,-1.6%

# Entries shown so far containing a thiophene ring, fused or not:
SMILES,hNpr1 antagonist
O=C(c1cccs1)N1CCCCCC1c1nc(C2CC2)no1 (stereo unspecified),-10.9%
O=C1CC(c2ccccc2)N(C(=O)C2CC2)CCCN(C(=O)c2cccs2)CCN1 (stereo unspecified),4.2%

# Given with each value named: 4 of the compounds above
> CC(=O)N1CCC(N2CCC3(CC2)CN(C2CCC2)CC3CO)CC1 (stereo unspecified)
  hNpr1 antagonist: -1.1%

> CC(c1ccccc1)N1Cc2cc(NC(=O)c3ccccc3)ccc2OCC1=O (stereo unspecified)
  hNpr1 antagonist: -12.4%

> CCC(=O)N1CCCC(n2c(C)cnc2-c2ccncc2)C1 (stereo unspecified)
  hNpr1 antagonist: 2.0%

> COc1cccc(Nc2ccc3c(n2)C(C)(C(=O)NC2CCC2)CN(C)C3)c1 (stereo unspecified)
  hNpr1 antagonist: -2.8%[70.6 µM]

# Other entries follow.
SMILES,hNpr1 antagonist
COCCN1C(=O)c2ccccc2C(C(=O)Nc2nncs2)C12CCCC2 (stereo unspecified),3.0%
CN(C)C[C@@H]1CN(Cc2ccccc2)C[C@H]1NC(=O)C1(C)CCOCC1,1.3%
O=C(c1cc(-c2ccccc2F)n[nH]1)N1CCC2(CCCN(Cc3ccccc3F)C2)C1 (stereo unspecified),-15.5%
Cn1nc(-c2ccccc2)cc1C(=O)N1CCNCC(O)C1 (stereo unspecified),0.0%
O=C1c2cccn2CC(CNS(=O)(=O)c2ccccc2)N1Cc1ccccc1 (stereo unspecified),-10.5%
O=C(Cn1nc2c(cc1=O)CCCC2)Nc1nc(-c2cccnc2)cs1,5.5%
COCCn1nc2n(c1=O)CCN(C(=O)c1ccc(Br)o1)CC2,-9.4%
CNC(=O)[C@@H](c1ccccc1OC)N1CCC[C@H]1C(=O)N(C)CCN(C)C,-3.2%[70.6 µM]
FC(F)(F)c1ccccc1CN1CCC2(CC1)CC(c1ccccc1)=NO2,6.4%
Cc1ccccc1S(=O)(=O)N1CCCC(Cc2noc(-c3cnccn3)n2)C1 (stereo unspecified),-5.2%
O=C(c1ccccc1Cl)N1CCN(c2nc3ncccc3o2)CC1,-1.7%

# Source: PubChem BioAssay (National Center for Advancing Translational Sciences (NCATS))
